LT uptake inh: qHTS Assay for Anthrax Lethal Toxin Internalization. Cells, anthrax lethal toxin internalization, FRET ratio (460/530). Potency, µM (titrated, usually from 40 µM), without a hit: top-dose activity change, negative = inhibition, actives largely listed as inhibitors. hit rate 0.67% among 70,000. AID 912, 2007; active = well fitted falling ratio curve with the 530 nm signal flat; inconclusive = other ratio curves, or a change in one channel alone; inactive = flat curves in the ratio and both channels; the % refers to the ratio; also: % is scaled to controls: 0 for no effect and ±100 for the full control effect; nearly all actives have a fitted effect of over 50% in size; tested in ME-180 cells; beta-lactamase reporter
SmPrx2 inh: Schistosoma Mansoni Peroxiredoxins (Prx2). Schistosoma mansoni peroxiredoxin 2 (Prx2). AID 448, 2006. Potency, µM. hit rate 0.07% among 65,000. S. mansoni Prx2 activity coupled to TGR/GSH (TGR is thioredoxin glutathione reductase), NADPH fluorescence loss, qHTS; some inactives read as strong as hits; active means full or partial inhibition curve with a strong effect at the top dose; inconclusive means weaker partial or single-point curve; inactive means no accepted curve; also: series up to 57 µM; many of its hits are not listed in these tables
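qHTS, coupled TGR/Prx2 format; 15 min compound preincubation at RT; reaction started with H2O2 (2.5 mM aliquot); kinetic NADPH fluorescence decrease, ex 365/em 450 nm.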
* hit, by the source's call; ? = inconclusive; . = not tested or not shown; & = joins results of further samples; [ ] = another dose, or the depositor's remark. Potency is read from the fitted curve at half-maximal effect.

SMILES	LT uptake inh	SmPrx2 inh
COCCN1CN(S(=O)(=O)c2ccccc2)c2nc3ccccc3nc21	3%	>57
COc1cc(-c2nc(Cc3ccccc3Cl)no2)cc(OC)c1OC	-11%	>57
Fc1ccccc1OCCCN1CCOCC1	-8%	>57
Cc1cccc(CNc2cc(-c3ccoc3)ncn2)c1	-6%	>57
COCCSc1ccccc1C(=O)Nc1nnc(COC)s1	?	>57
CC(=O)c1c(C)[nH]c(C(=O)Nc2cc(C)ccc2C)c1C	2%	>57
Cc1c(OCC(F)(F)F)ccnc1CS(=O)c1nc2ccccc2[nH]1 (configuration not stated)	1%[3.58 µM]	>57&>57
c1ccc2oc(CCc3nc4ccccc4o3)nc2c1	-18%	>57
O=C(Nc1ccc2c(c1)OCO2)C1CCN(C(=O)CSc2ncnc3ccccc23)CC1	-9%	>57
CCn1c(COc2ccccc2)nnc1SCC(=O)NC1CCCCC1	4%	>57
CC(=O)NCCOC(=O)Nc1ccncc1	13%	.
COC(=O)Cn1cnc2c(C#N)c3n(c2c1=O)CCCCC3	7%	>57
CCOC(=O)C1CCCN(C(=O)c2cc3c(=O)n(C)c4ccccc4c3n2C)C1 (configuration not stated)	25%	>57
CO[C@@H]1COC(=O)CCC[C@@H](C)[C@H](OC)COC(=O)CCC[C@H]1C	-13%[8 µM]	.
CC(C)C[C@@H](CC(=O)N[C@H](CC(=O)N[C@@H]1CCNC[C@H]1C(=O)N[C@H](CC(=O)N[C@@H](CCC(=O)O)CC(=O)O)CC(C)C)C(C)C)NC(=O)[C@@H]1CNCC[C@H]1N	-10%	>57

Compound profiles, from the list above. Order of values: LT uptake inh	SmPrx2 inh
`c1ccc2oc(CCc3nc4ccccc4o3)nc2c1` as listed: -18%	>57
`CC(C)C[C@@H](CC(=O)N[C@H](CC(=O)N[C@@H]1CCNC[C@H]1C(=O)N[C@H](CC(=O)N[C@@H](CCC(=O)O)CC(=O)O)CC(C)C)C(C)C)NC(=O)[C@@H]1CNCC[C@H]1N` as listed: -10%	>57

More records follow.
SMILES	LT uptake inh	SmPrx2 inh
O=C(Cn1nnc2ccccc21)NCc1ccccc1	9%	>57
CC(C)CN1CC2(CCN(C(=O)Oc3ccccc3)CC2)C1	-2%	>57
CCOc1ccc(C(=O)N2CCN(Cc3ccccc3)CC2)cc1	-8%	.
CC(O)CN1C(=O)C(CC(=O)Nc2ccc(Cl)cc2)SC1=Nc1ccccc1 (configuration not stated)	-2%	>57
CC1CCC(C(=O)O)NC1c1cccc(N2CCCC2=O)c1 (configuration not stated)	-8%[8 µM]	.
CC(C)CCn1cnc2c1c(=O)n(C)c(=O)n2C	.	>57
Cc1cccc(OCCSc2nnc(-c3ccoc3C)n2C)c1	2%	>57
Cc1ccccc1-c1ccc(Nc2ccc(C(=O)N3CCOCC3)cc2)nn1	-5%	>57
CCOc1cc([C@H]2[C@@H]3CCCC[C@]3(O)CCN2CC(=O)NCc2ccco2)ccc1O	?	>57
Cc1cccc(C)c1NC(=O)CSc1nnc(CCCCCNC(=O)OC(C)(C)C)o1	?	>57
O=C(N1CCOCC1)N1CCN(c2ccccc2F)CC1	-9%	>57
CC1CCCN(C(=O)Cc2ccc(F)cc2)C1 (configuration not stated)	?	>57
CSCCc1nc(SCC(=O)Nc2nnc(C)s2)[nH]c1C	?	>57
COc1ccc2nc(NC(=O)C3CCN(S(=O)(=O)c4cccc5nsnc45)CC3)sc2c1	13µM*	>57
Cc1cc(C)c2cc(CN(CCO)C(c3nnnn3Cc3ccc(F)cc3)C(C)C)c(=O)[nH]c2c1 (configuration not stated)	-19%	>57
O=C(c1ccco1)N1CCN(C(=O)c2cc3sccc3n2Cc2ccccc2)CC1	-4%	>57
N#CC1=C(N)S[C@H](C(=O)C23CC4CC(CC(C4)C2)C3)[C@H]1c1ccncc1	?	>57
CC(C)c1ccccc1S(=O)c1ccccc1C(C)(C)O (configuration not stated)	-7%[8 µM]	>57
CCn1c(CNC(=O)c2cccc(C)c2)nnc1SCC(=O)Nc1cccc(OC)c1	-20%	>57
NC(=O)C1CCN(CCC(=O)Nc2cccc(Cl)c2)CC1	.	>57
CCCCC(=O)Nc1ccc2c3c(cccc13)C(=O)N2CC	-30%	>57
Cn1c(Sc2ccc(-c3cccnc3)n2C)ccc1-c1cccnc1	-8%[8 µM]	>57
CN1CCN(c2ncncc2-c2ccccc2Cl)CC1	-3%	>57
O=C(Nc1ccc(S(=O)(=O)N2CCN(Cc3ccccc3)CC2)cc1)c1cnccn1	0%	>57
O=C(NCCCN1CCCC1)c1ccc(CS(=O)(=O)c2ccc(Br)cc2)o1	-13%	>57
O=C(O)CCN1CCOCC1	1%	>57
CCC(=O)N1CCc2cc(S(=O)(=O)CCC(=O)Nc3nc(C)cs3)ccc21	?	>57
CS(=O)(=O)c1ccc(Cl)c(S(=O)(=O)NCc2ccccc2)c1	?	>57
CCNC(=O)NC(=O)C(C)OC(=O)c1cccnc1SC (configuration not stated)	12%	>57
COc1cccc(C(=O)Nc2cccc(NC(C)=O)c2)c1	0%	>57

Look-ups from the results shown:
CC(C)c1ccccc1S(=O)c1ccccc1C(C)(C)O (configuration not stated) in SmPrx2 inh = >57
CCNC(=O)NC(=O)C(C)OC(=O)c1cccnc1SC (configuration not stated) in LT uptake inh = 12%
O=C(c1ccco1)N1CCN(C(=O)c2cc3sccc3n2Cc2ccccc2)CC1 in SmPrx2 inh = >57
O=C(O)CCN1CCOCC1 in LT uptake inh = 1%

Next part:
SMILES	LT uptake inh	SmPrx2 inh
O=C(NCC1CCCO1)[C@@H]1CSC2c3ccccc3C(=O)N21 (some centres not stated)	-3%	>57
O=C(c1nc2nc(-c3ccccc3)cc(C(F)(F)F)n2n1)N1CCOCC1	0%	>57
CCCNS(=O)(=O)c1ccc(OCC(=O)N2CCN(Cc3ccccc3)CC2)cc1	3%	>57
COc1ccc(CCNC(=O)Cc2cc(=O)[nH]c(=O)[nH]2)cc1OC	0%	>57
Cc1ccc(CNC(=O)CSc2nc3ccccc3c(=O)n2CCCO)cc1	-1%	>57
CCO/C=C1\C(=O)N(c2ccccc2)C(=O)c2ccccc21	?	.
O=C(CC1CCCC1)OCn1nnc2ccccc2c1=O	4%	>57
Cc1cc(NC(=O)CSc2nnc(C)c(=O)[nH]2)no1	1%	>57
Cn1c(=O)cnc2cnc(Nc3ccccc3)nc21	4%	>57
COc1cccc(CNC(=O)C2CCN(S(=O)(=O)c3c(C)nn(C)c3C)CC2)c1	-6%	>57
O=c1[nH]c(N2CCOCC2)nc2ncn(Cc3ccccc3)c12	6%	>57
C=CCNc1nc(NCCN2CCOCC2)nc(OC)n1	1%	>57
COc1ccc2nc3oc(C(=O)N4CCN(c5cccc(C(F)(F)F)c5)CC4)cc3cc2c1	?	>57
O=C(c1ccc(F)cc1)C1CCN(CCCCc2ccccc2)CC1	-19%	>57
COC(=O)c1ccccc1NC(=O)CS(=O)(=O)Cc1nc(-c2ccc(C)cc2)oc1C	-5%	>57
CC(C)(C)SCCNC(=O)c1ccc(NS(C)(=O)=O)cc1	-3%	>57
COc1ccc(CNC(=O)c2cc(-n3cnnc3)ccc2Cl)cc1	.	>57
COc1ccccc1N1CCN(C(=O)c2cc(-c3ccc(C)cc3)on2)CC1	-27%	>57
c1ccc2c3c([nH]c2c1)[C@@H]1[C@H]2CC[C@H]([C@H]4CCCN[C@H]42)N1CC3	5%[3.58 µM]	>26
NCCCCN=C(N)N	?	>57&>57
CSc1nnc(-c2nnc(SC)n2-c2ccccc2)n1-c1ccccc1	6%	>57
Cc1nn(CCc2nn[nH]n2)c2nc(C(F)(F)F)cc(C(F)(F)F)c12	2%	>57
O=C(C1CCN(S(=O)(=O)c2cccc3nsnc23)CC1)N1CCc2ccccc21	-9%	>57
COc1ccc(CCC(=O)NCc2ccco2)cc1	-11%	>57
Cc1nc2cc(NC(=O)N3CCC(c4ccccc4)C3)ccc2n1C (configuration not stated)	4%	>57
c1ccc(-c2nn3nnnc3c3ccccc23)cc1	-16%	>57
O=S(=O)(c1ccc(Oc2ccccc2)cc1)N1CCOCC1	5%	>57
COc1ccc(S(=O)(=O)Nc2cc(C)c(O)cc2C(C)C)cc1	-18%	>57
COc1ccccc1-c1cc(C(=O)NC(C)c2ccccc2)no1 (configuration not stated)	-21%	>57
CCOC(=O)c1sc(NC(=O)c2c(C)nn(Cc3ccccc3)c2C)cc1C	?	>57
CCCCN(C)Cc1c(O)ccc2c(-c3ccccc3)cc(=O)oc12	-7%	.
CN1C(=O)CC(P(=O)(c2ccccc2)c2ccccc2)N(C)C1=O (configuration not stated)	-14%	>57
COC(=O)C1=C(N)Oc2cc(C)n(CCc3ccccc3)c(=O)c2C1c1cccnc1 (configuration not stated)	-27%	>57
NC[C@H](CP(=O)(O)O)c1ccc(Cl)cc1	?	>57&>57
COc1ccc(OC)c(Nc2cc(-c3ccccc3)nc(N)n2)c1	?	>57
OCCNc1cc(-n2nc(-c3ccccc3)cc2-c2ccccc2)ncn1	2%	>57
CCNS(=O)(=O)c1ccc(S(=O)(=O)N(Cc2ccccn2)C2CCCCC2)cc1	3%	>57
CCn1ncc(C2=NOC(C(=O)Nc3c(C)nn(Cc4ccc(F)cc4)c3C)C2)c1C (configuration not stated)	-14%	>57
CCN(Cc1cc2ccccc2[nH]c1=O)C(=O)C1CCCCC1	-17%	>57
COc1cc(-c2ccc(N)c(OC)c2)ccc1N	-15%	.
CCCCn1c(SCC(=O)Nc2nnc(C)s2)nnc1-c1ccoc1C	-7%	>57
Cc1nc2c(c(=O)n1Cc1ccccc1Cl)c1nc3ccccc3nc1n2Cc1ccco1	7.9µM*	>57
Fc1ccccc1N1CCN(Cc2nc(-c3ccc(Cl)cc3Cl)no2)CC1	-15%	>57
Cc1ccc(-c2nn(C)c(=O)c3ccccc23)cc1S(=O)(=O)NCCN1CCOCC1	-6%	>57
O=C(Cn1nc(C(F)(F)F)c2c1CCCC2)Nc1ccc2c(c1)OCO2	?	>57

Continued; the last 7 above are carried over.
SMILES	LT uptake inh	SmPrx2 inh
CCN(Cc1cc2ccccc2[nH]c1=O)C(=O)C1CCCCC1	-17%	>57
COc1cc(-c2ccc(N)c(OC)c2)ccc1N	-15%	.
CCCCn1c(SCC(=O)Nc2nnc(C)s2)nnc1-c1ccoc1C	-7%	>57
Cc1nc2c(c(=O)n1Cc1ccccc1Cl)c1nc3ccccc3nc1n2Cc1ccco1	7.9µM*	>57
Fc1ccccc1N1CCN(Cc2nc(-c3ccc(Cl)cc3Cl)no2)CC1	-15%	>57
Cc1ccc(-c2nn(C)c(=O)c3ccccc23)cc1S(=O)(=O)NCCN1CCOCC1	-6%	>57
O=C(Cn1nc(C(F)(F)F)c2c1CCCC2)Nc1ccc2c(c1)OCO2	?	>57
CCn1c(=N)c(C(N)=O)cc2c(=O)n3cccc(C)c3nc21	-1%	>57
CC(C)OCCCNS(=O)(=O)c1ccc2c(c1)oc(=O)n2C	0%	>57
O=C(C1CCCN(S(=O)(=O)c2cccs2)C1)N1CCc2ccccc2C1 (configuration not stated)	-8%	>57
Cc1cc2cc(CCNC(=O)C(C)C)c(=O)[nH]c2cc1C	-2%	>57
CCCCCCNC(=O)C(C(=O)OCC)C1CCCCC1 (configuration not stated)	-18%	.
CCCCC1CCC(/C(N)=N/O)CC1 (configuration not stated)	5%	>57
c1ccc(-c2nc(CSc3nnc(-c4cccs4)o3)cs2)cc1	-27%	>57
COC(=O)c1[nH]c2cccc(Cl)c2c1NC(=O)CN(C)C1CCCCC1	?	>57
O=C(Nn1nnnc1Nc1ccccc1)C12CC3CC(CC(C3)C1)C2	19%	.
O=C(c1ccc(Br)o1)N1CCN(c2ccccn2)CC1	-7%	>57
CCCCCn1c(CN2CCCCC2C)nc2c1c(=O)n(C)c(=O)n2C (configuration not stated)	2%	>57
CC(C)C1C2=C(CC(C)(C)CC2=O)ON1c1ccccc1 (configuration not stated)	-3%	>57
Cn1c(=O)c2c(nc(N3CCCC3)n2CC(O)CO)n(C)c1=O (configuration not stated)	0%	>57
COc1ccc(C(=O)N/N=C2/C(=O)c3c(C)cc(C)cc3CC2(C)C)cc1	?	>57
CCCCNC(=O)Nc1cc(C(=O)OC)ccc1C	-9%	>57
N#CCCn1c(SCC(=O)c2c[nH]c3ccccc23)nc2ccccc21	-14%	>57
CCOC(=O)c1cnc2nc(NCc3ccc(OC)c(OC)c3)[nH]n2c1=O	3%	>57
O=C(CCCCCN1C(=O)CCC1=O)NCc1ccccc1	?	>57
CCOc1ccc2nc(SCC#N)c(C#N)cc2c1	-20%	>57
COc1ccccc1NC(=O)C1=C(C)NC(=O)NC1c1cccc(OC)c1OC (configuration not stated)	-3%	.
COc1ccc(C(c2nnnn2C2CCCC2)N2CCC(C)CC2)c(OC)c1 (configuration not stated)	12%	>57
O=C(c1nc2ncccn2n1)N1CCN(c2ccc(F)cc2)CC1	-14%	>57
COc1cc(-c2nnc(CSc3nc4ccccc4s3)o2)cc(OC)c1OC	?	>57
Cc1ccccc1-c1nnc(-c2ccc(Br)cc2)o1	-8%	>57
CCN(CC)C(=O)c1ccc(CS(=O)(=O)c2ccc(OC)cc2)o1	-10%	>57
CCN(CC)S(=O)(=O)c1ccc(NC(=O)Cn2c(=O)sc3ccccc32)cc1	-21%	>57
COc1cccc(C(=O)Nc2cccc(-c3nc4ncccc4o3)c2C)c1	-12%	.

From PubChem

These rows are one share of the data (hit frequency here may not be typical).
